RecA splice inh = blocks M. tuberculosis RecA intein splicing | cell-free RecA intein splicing, fluorescence | inhibition, %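 (about 9 µM by stock and volumes)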 | 0.75% of 290,000 active; in the data active = inhibition above about 30%; inconclusive = no clear call, values can overlap the other calls;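 note: 0% = vehicle wells and 100% = reference inhibitor control wells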
Target sequence (P9WHJ3 whole entry, looked up, canonical isoform): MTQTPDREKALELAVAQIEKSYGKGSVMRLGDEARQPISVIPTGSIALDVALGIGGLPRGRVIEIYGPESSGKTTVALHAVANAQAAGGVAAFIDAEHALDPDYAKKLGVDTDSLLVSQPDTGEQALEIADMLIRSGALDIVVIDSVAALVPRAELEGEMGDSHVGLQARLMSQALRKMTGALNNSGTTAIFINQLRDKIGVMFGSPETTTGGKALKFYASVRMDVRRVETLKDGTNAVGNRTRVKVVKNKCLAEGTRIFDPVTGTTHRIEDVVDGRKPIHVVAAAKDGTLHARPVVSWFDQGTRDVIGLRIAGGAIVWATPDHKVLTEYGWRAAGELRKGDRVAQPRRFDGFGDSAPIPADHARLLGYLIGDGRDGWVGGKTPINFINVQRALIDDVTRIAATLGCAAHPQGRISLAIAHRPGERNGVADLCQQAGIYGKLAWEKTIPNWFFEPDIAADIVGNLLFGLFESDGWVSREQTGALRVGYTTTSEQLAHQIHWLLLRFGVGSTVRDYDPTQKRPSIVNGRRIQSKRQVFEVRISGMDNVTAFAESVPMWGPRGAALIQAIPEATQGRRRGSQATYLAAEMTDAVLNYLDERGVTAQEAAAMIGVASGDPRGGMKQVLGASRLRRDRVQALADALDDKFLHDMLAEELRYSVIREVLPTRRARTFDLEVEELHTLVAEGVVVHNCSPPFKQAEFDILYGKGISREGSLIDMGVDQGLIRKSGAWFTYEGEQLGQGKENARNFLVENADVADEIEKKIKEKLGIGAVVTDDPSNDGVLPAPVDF
Mtb bLac sens = beta-lactam sensitization of Mtb H37Rv. M. tuberculosis H37Rv growth with meropenem, percent inhibition; hits of this screen are not shown here. inhibition, % at 25 µM. 0.27% of 330,000 active. AID 434955;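 active = about 74% or more and at least 40 points above the plate without the antibiotic, then above 30% in a dose series; inconclusive = first-round hits that could not be retested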;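 note: growth measured after seven days incubation then overnight dye step; 0% = bacteria only wells and 100% = bacteria with antibiotic; twin plates without the antibiotic show which effects depend on it; some results filed as inactive read as strong as hits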
Arbovirus anti = arbovirus infection inhibition; inhibition, % at 10 µM; arbovirus infection cell-based antiviral screen; 0.37% of 200,000 active; AID 1251;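 active = inhibition from about 30%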;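 note: bluetongue infection of BSR cells; cell survival read as ATP light after 72 h; 0% = infected wells without compound and 100% = uninfected wells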
Mtb H37Rv = M. tuberculosis H37Rv growth inhibitors, H37Rv strain (AID 1626); inhibition, % at 10 µM, or IC50 in µM where a hit was titrated; M. tuberculosis H37Rv growth inhibition; higher % means a stronger effect; 0.95% of 220,000 active;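 active = confirmed in a dose series; inconclusive = inhibition above 80% but not taken into the dose series; inactive = below 80% or under 30% at every dose of the series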;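 note: bacteria incubated seven days before Alamar blue readout; 0% = bacteria only wells and 100% = bacteria with antibiotic wells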
YopH inh = YopH (Yersinia) phosphatase inhibition. inhibition, %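 (about 10 µM by stock and volumes)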. fluorescence Ex485/Em525. 0.16% of 140,000 active;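 active = inhibition of 50% or more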;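 note: controls were vehicle for no effect and minimum signal wells for full effect; inactives centre near -20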
Arbovirus anti repeat = also measured in Arbovirus anti; calls as there; inhibition, %; measured here: 10K subset replicate screen; many hits read low in the repeat;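 first of two repeat runs on a subset; 0% = infected and 100% = uninfected wells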
* = called active by the depositor; ? = inconclusive; . = not tested or not shown.

SMILES | RecA splice inh | Mtb bLac sens | Arbovirus anti | Mtb H37Rv | YopH inh | others
O=C(c1cccc(S(=O)(=O)NCc2ccccc2)c1)N1CCCC(C(F)(F)F)C1 (centres undefined) | 2.3 | 4 | . | . | .
Cc1c(C)n2c(SCC(=O)N3CC(C)OC(C)C3)nnc2[nH]c1=O (centres undefined) | -0.3 | 0 | . | . | .
COc1ccc(S(=O)(=O)NCC(=O)NCc2cc(=O)n(C)c(=O)n2C)cc1 | 0.6 | -7 | . | . | .
CC1=C(C(=O)N2CCOCC2)C(c2ccc(C)cc2)NC(=S)N1 (centres undefined) | 0.9 | 2 | 5 | -2% | -24
COc1cc(OC)c(OC)cc1/C=C1\SC(N2CCCCC2)=NC1=O | -1.8 | 7 | . | . | .
Cc1cc(-c2n[nH]c(=S)n2/N=C/C=C/c2ccccc2)n[nH]1 | 0.9 | 1 | 7 | 0% | -25
CC(C)(C)C(=O)OC[N+](C)(C)CCOC(=O)C(O)(c1ccccc1)C1CCCC1 (centres undefined) | 1.5 | -3 | 5 | -11% | .
O=CN1c2ccccc2CSc2ccccc21 | 1.5 | 7 | . | . | .
COc1ccccc1N1CCN(C(=O)c2ccc(CN3CCOCC3)cc2)CC1 | -0.3 | 2 | 0 | 5% | .
Cc1c(NC(=O)c2ncn[nH]2)cccc1-c1nc2ccccc2s1 | -0.3 | -6 | -3 | 8% | -27
COC(=O)C1CCN(C(=O)c2ccc3nc(-c4cccc(OC)c4)oc3c2)CC1 | -9.5 | ? | . | . | .
CNc1cc(N2CCCCCC2)ccc1[N+](=O)[O-] | 8.0 | 7 | 14 | 11% | 6
COc1cccc(C(=O)NNC(=O)C(=O)Nc2cccc3ccccc23)c1 | -1.3 | 95 | . | . | .
COc1ccccc1N1CCN(c2cc(N3CCCC3)nc(C)n2)CC1 | 0.2 | 9 | 5 | 5% | 14
CC(C)OC(=O)c1c(N)sc2c1CCCC2 | . | -4 | . | . | -8

Five compounds out of the list, arranged by length of the SMILES, lowest first:
SMILES | RecA splice inh | Mtb bLac sens | Arbovirus anti | Mtb H37Rv | YopH inh | others
O=CN1c2ccccc2CSc2ccccc21 | 1.5 | 7 | . | . | .
CC(C)OC(=O)c1c(N)sc2c1CCCC2 | . | -4 | . | . | -8
COc1cccc(C(=O)NNC(=O)C(=O)Nc2cccc3ccccc23)c1 | -1.3 | 95 | . | . | .
COc1ccc(S(=O)(=O)NCC(=O)NCc2cc(=O)n(C)c(=O)n2C)cc1 | 0.6 | -7 | . | . | .
CC(C)(C)C(=O)OC[N+](C)(C)CCOC(=O)C(O)(c1ccccc1)C1CCCC1 (centres undefined) | 1.5 | -3 | 5 | -11% | .

The results go on:
SMILES | RecA splice inh | Mtb bLac sens | Arbovirus anti | Mtb H37Rv | YopH inh | others
CCc1nnc2sc(-c3ccc(NC(=O)c4ccco4)cc3)nn12 | 1.2 | -1 | 1 | 29% | -52
CC(C)c1nnc(NC(=O)CCN2C(=O)c3ccccc3C2=O)s1 | 0.7 | 9 | 6 | -8% | -36 | Arbovirus anti repeat=-2
Cc1ccc2occ(CN3CCN(c4ccccc4)CC3)c(=O)c2c1 | -0.2 | -6 | 15 | -4% | -3
CCOC(=O)c1ccc(NS(=O)(=O)c2c(C)nc3sccn3c2=O)cc1 | -1.6 | -3 | . | . | .
CN(C)c1ccc(-n2cc3c(=O)n(C)c(=O)n(C)c3c2)cc1 | -1.1 | 72 | -10 | 7% | -2
O=C(Cn1nc(-c2ccccc2)ccc1=O)NCC1CCCO1 (centres undefined) | -0.2 | -2 | 1 | -3% | -55
CC1CCC/C(=C\Nc2ccc(C(=O)O)cc2)C1=O (centres undefined) | -7.3 | -13 | 1 | -6% | .
O=C(CCc1ccccc1)N/N=C\c1cc2c(cc1Br)OCO2 | -1.4 | -1 | . | . | .
CN(CC(=O)Nc1ccccc1Cl)C(=O)COC(=O)C1=COCCO1 | -2.5 | 3 | . | . | .
CCOc1ccc(CN(Cc2ccco2)C(c2cccs2)c2nnnn2C(C)(C)C)cc1 (centres undefined) | 2.8 | -23 | -4 | 12% | -45
Oc1ccc(-n2nnnc2SCc2c(F)cccc2Cl)cc1 | 12 | 3 | . | . | .
Cc1nc2nc(-c3ccccc3)nn2c(C)c1C | -1.0 | -6 | . | . | .
O=C1C=CC(=O)N1c1ccc(O)cc1 | -3.5 | -1 | . | 4% | .
CC(C)N(C(=O)Cn1cc(S(=O)(=O)CC(=O)NC2CCCCC2)c2ccccc21)C(C)C | 1.1 | 3 | 6 | 1% | .
Cc1ccc2nc(N(CCCN(C)C)C(=O)CS(=O)(=O)c3ccccc3)sc2c1 | 1.8 | -4 | . | . | .
COc1ccc(S(=O)(=O)N2CCCC(C(=O)NCC3CCCO3)C2)cc1Cl (centres undefined) | -3.3 | -2 | . | . | .
C=CCn1c(=O)/c(=C2/SC(C)=C(C)N2CC)s/c1=C1/C(=O)N(CC)C(=S)N1c1ccccc1 | 1.2 | 0 | -9 | . | -6
CN(C)CCNc1cc(-c2ccncc2)nc2ccccc12 | -0.8 | -4 | -2 | -3% | .
O=[N+]([O-])c1cccc(-c2ccc(C(=S)N3CCN(c4ccc(F)cc4)CC3)o2)c1 | -3.8 | -3 | 10 | 2% | -3
CCSC1=C(C#N)C(c2cccc(Br)c2)CC(=O)N1 (centres undefined) | -2.0 | 8 | -6 | -14% | -9
Cc1ccccc1N(C)S(=O)(=O)c1nnc(NC(=O)c2ccccc2F)s1 | 5.2 | 8 | . | . | .
COc1ccc(N(CC(=O)NCc2ccccc2C)S(=O)(=O)c2ccccc2[N+](=O)[O-])c(OC)c1 | . | -7 | -7 | -2% | .
COc1ccc(OC)c(C2CC(=O)NC(SC)=C2C#N)c1 (centres undefined) | 1.2 | -2 | 3 | 3% | -43 | Arbovirus anti repeat=0
CSc1sc(C(=O)NNC(C)=O)c2c1C1(CCC2)SCCS1 | 0.5 | 1 | . | 5% | .
Cc1ccc(C)c(NC(=S)N/N=C2/CCCCc3ccccc32)c1 | 10 | 5 | -10 | -2% | -23
O=C(Nc1ccc2c(c1)OCO2)C1CCN(C(=O)c2ccc(Br)cc2)CC1 | 0.8 | -3 | -9 | -2% | .
CCC1(c2ccc(F)cc2)NC(=O)N(CC(=O)N(CCC#N)c2ccccc2)C1=O (centres undefined) | 1.2 | 3 | . | . | .
COc1ccc(C(=O)COC(=O)c2ccn(C)n2)cc1 | -1.4 | -4 | . | . | .
COC(=O)c1ccc(/C(O)=C(\C#N)c2nc3ccccc3s2)cc1 | 0.4 | 67 | 9 | 2% | -30
CCCCC(=O)Nc1ccc2c(c1)oc1ccccc12 | -1.0 | 93 | -18 | >100µM* | -25
CC(CCc1ccccc1)NC(=O)c1ccc(C(=O)NC(C)CCc2ccccc2)cc1 (centres undefined) | . | 0 | -15 | . | 9
COc1ccc(-c2nnc(-c3cccs3)o2)cc1OC | 3.2 | 53 | 14 | -2% | -15
CCOC(=O)c1c(C)n(C)c2ccc(OC(C)C(=O)OC)cc12 (centres undefined) | 3.0 | 97 | 2 | 8µM* | -26
CCCC(=O)N1CCCC(C(=O)c2ccc(OC)c(OC)c2)C1 (centres undefined) | -1.3 | -4 | . | . | .
Cc1c(Br)c([N+](=O)[O-])nn1C(C)C(=O)Nc1ccc2c(c1)OCO2 (centres undefined) | 2.6 | 4 | 0 | 5% | -39
Cc1cc(C)c(S(=O)(=O)N2CCCCC2)c(C)c1N(C)S(=O)(=O)c1ccc(Cl)cc1 | 11 | -8 | -1 | 1% | -30
CN(C)c1cccc(C(=O)N2CCC(n3nccc3NC(=O)C3CCOC3)CC2)c1 (centres undefined) | 1.4 | 2 | . | . | .
Cc1cc(F)ccc1Oc1cc(NN2CCCCC2)c([N+](=O)[O-])cc1[N+](=O)[O-] | 2.6 | -6 | . | . | .
Oc1ccccc1N1CCN(Cc2ncc(-c3ccccc3)o2)CC1 | 2.5 | 10 | . | . | .
CCCN(CC1CC1)C(=O)CCc1nnc(CCc2c[nH]c3ccccc23)o1 | 2.1 | -9 | 0 | 5% | .
Cc1c(C2(c3c(C)n(C)n(-c4ccccc4)c3=O)C(=O)Nc3ccc(F)cc32)c(=O)n(-c2ccccc2)n1C | 1.7 | 3 | 2 | 3% | -16
CCOC(=O)N1C2=NC(C(=O)OC)=C(C(=O)OC)[C@@H]3Nc4ccccc4[C@]23C[C@H]1C(=O)OC | -0.8 | 5 | . | -12% | .
CCC(=O)Nc1ccc(S(=O)(=O)N2CCN(c3ccc(F)cc3)CC2)cc1 | -0.7 | 8 | 13 | 18% | -3
Cc1cccc(NC(=O)CN2CCc3cc4c(cc3C2C)OCCCO4)c1 (centres undefined) | 2.8 | 7 | . | . | .
N#CC1=CN(Cc2ccccc2)C=C(/C=N/Nc2ccccc2)C1 | . | 88 | -29 | 44% | .

Continued (4 carried over from the part before).
SMILES | RecA splice inh | Mtb bLac sens | Arbovirus anti | Mtb H37Rv | YopH inh | others
CCOC(=O)N1C2=NC(C(=O)OC)=C(C(=O)OC)[C@@H]3Nc4ccccc4[C@]23C[C@H]1C(=O)OC | -0.8 | 5 | . | -12% | .
CCC(=O)Nc1ccc(S(=O)(=O)N2CCN(c3ccc(F)cc3)CC2)cc1 | -0.7 | 8 | 13 | 18% | -3
Cc1cccc(NC(=O)CN2CCc3cc4c(cc3C2C)OCCCO4)c1 (centres undefined) | 2.8 | 7 | . | . | .
N#CC1=CN(Cc2ccccc2)C=C(/C=N/Nc2ccccc2)C1 | . | 88 | -29 | 44% | .
COc1ccccc1NC(=O)Nc1ccc(-n2ccc(C(F)(F)F)n2)cc1 | 0.0 | -6 | . | -4% | .
COc1ccc(-c2cc(C(=O)N(C)CC(=O)Nc3cccc(F)c3)c3ccccc3n2)cc1 | -0.5 | -2 | . | . | .
Cc1cccc(C)c1OCc1nnc(SCC(=O)Nc2ccc(N3CCOCC3)cc2)o1 | -3.8 | 1 | . | . | .
COC(=O)NNC1=CC(=O)CC(C)(C)C1 | . | 4 | 5 | 5% | .
COc1cc(/C=N/NC(=S)NC2CC3CC2C2C=CCC32)ccc1O (centres undefined) | 11 | 92 | . | 14% | .
COc1ccccc1NC1C=CS(=O)(=O)C1 (centres undefined) | -0.8 | -3 | 6 | -4% | -9 | Arbovirus anti repeat=0
COc1ccccc1Nc1ncnc2sccc12 | -3.7 | 4 | . | . | .
CCCCN(C(=O)C1CC(=O)N(Cc2ccc(C)cc2)C1)c1c(N)n(CC(C)C)c(=O)[nH]c1=O (centres undefined) | 2.3 | ? | . | . | .
O=[N+]([O-])c1ccc(N=Nc2c(Cl)cc(O)cc2Cl)cc1 | -1.0 | 99 | . | 1.6µM* | .
Cc1ccccc1NC(=O)Cn1c(C)nc2ccc(NC(=O)C3CC3)cc2c1=O | 0.5 | -2 | -6 | -3% | -21
CC(C)N(C(=O)Cn1cnc2c(cnn2-c2ccccc2Cl)c1=O)C(C)C | 0.3 | 2 | -1 | 8% | 10
C=CCn1c(CCC(O)CCCCC)n[nH]c1=S (centres undefined) | -0.2 | 2 | 1 | -9% | -18
COCCN(C(=O)CSc1nc2ccccc2c(=O)n1CC(C)C)c1c(N)n(Cc2ccccc2)c(=O)[nH]c1=O | 2.4 | -11 | 2 | 2% | .
O=C(Nc1ccccc1C(=O)O)C1=NN=CC1 | 0.0 | -9 | . | . | .
Cc1ccc(NC(=O)Cn2nnc(C(=O)NCCc3ccccc3)c2N)c(C)c1 | -1.2 | 3 | . | . | .
CNC(=S)NNC(=O)c1c(C)nc2cc(C)ccn12 | -6.0 | -1 | . | -11% | .
COc1cc(NC(=O)c2ccccc2)cc(OC)c1 | -2.0 | -13 | -3 | -13% | -20
O=c1c2ccccc2n(CC(O)CN2CCOCC2)c2ccccc12 (centres undefined) | -137 | -12 | . | . | .
O=C(CCC(=O)N1CCc2ccccc2C1)N1CCN(S(=O)(=O)c2ccccc2)CC1 | . | -4 | 3 | -5% | 37
CN1CCc2nc3sc(C#N)c(N)c3c(-c3cccs3)c2C1 | 7.7 | . | 32* | -3% | 6
CN(CC(=O)Nc1cccc(F)c1)C(=O)CCC1CCCCC1 | -2.4 | 0 | . | . | .
Cc1cc(N)n2nc(C)c(-c3ccccc3)c2n1 | -1.4 | -4 | -6 | -7% | -15
Cc1ccc(S(=O)(=O)NCCCCCC(=O)Nc2ccccc2C)cc1 | -1.5 | 5 | -1 | 5% | -43
CCCC1CC(C)(/C(C)=N\NC(N)=S)OC1=O (centres undefined) | -3.2 | 0 | -4 | 0% | .
COc1ccc(-n2cnnc2SCC(=O)NC2CCS(=O)(=O)C2)cc1 (centres undefined) | 0.7 | -3 | 7 | -1% | -12
CCN(Cc1ccncc1)C(=O)c1cc(COc2ccc(F)cc2F)on1 | 2.0 | -6 | . | . | .
Cc1cc(C)c(S(=O)(=O)Cc2ccccc2)c(=O)[nH]1 | -1.2 | 2 | 0 | 4% | .
O=C(Nc1cccnc1Cl)c1cc2c(s1)-c1ccccc1OC2 | -34 | -3 | . | . | .

A portion of the library, so the mix of outcomes need not match the whole.
